# Screens: PubChem BioAssay, National Center for Advancing Translational Sciences (NCATS)
# hNpr1 antagonist = Natriuretic polypeptide receptor (hNpr1) antagonism - Primary qHTS; HEK293 hNpr1 GloSensor cGMP, ANP-stimulated luminescence; Potency, µM (doses to about 46.3 µM), for inactives: at the highest dose activity change, negative = inhibition, actives largely listed as inhibitors; actives 1.6% (n = 76,000); active = well fitted inhibition curve with a large enough effect; inconclusive = small, poorly fitted or top-dose-only effect; inactive = no such curve, though single readings can be large or run the other way;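 also: nearly all actives have a fitted effect of over 60% in size; nearly all hits also lower the signal before the agonist is added; a reference antagonist and vehicle were the controls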
# Target sequence (P16066 whole entry, looked up): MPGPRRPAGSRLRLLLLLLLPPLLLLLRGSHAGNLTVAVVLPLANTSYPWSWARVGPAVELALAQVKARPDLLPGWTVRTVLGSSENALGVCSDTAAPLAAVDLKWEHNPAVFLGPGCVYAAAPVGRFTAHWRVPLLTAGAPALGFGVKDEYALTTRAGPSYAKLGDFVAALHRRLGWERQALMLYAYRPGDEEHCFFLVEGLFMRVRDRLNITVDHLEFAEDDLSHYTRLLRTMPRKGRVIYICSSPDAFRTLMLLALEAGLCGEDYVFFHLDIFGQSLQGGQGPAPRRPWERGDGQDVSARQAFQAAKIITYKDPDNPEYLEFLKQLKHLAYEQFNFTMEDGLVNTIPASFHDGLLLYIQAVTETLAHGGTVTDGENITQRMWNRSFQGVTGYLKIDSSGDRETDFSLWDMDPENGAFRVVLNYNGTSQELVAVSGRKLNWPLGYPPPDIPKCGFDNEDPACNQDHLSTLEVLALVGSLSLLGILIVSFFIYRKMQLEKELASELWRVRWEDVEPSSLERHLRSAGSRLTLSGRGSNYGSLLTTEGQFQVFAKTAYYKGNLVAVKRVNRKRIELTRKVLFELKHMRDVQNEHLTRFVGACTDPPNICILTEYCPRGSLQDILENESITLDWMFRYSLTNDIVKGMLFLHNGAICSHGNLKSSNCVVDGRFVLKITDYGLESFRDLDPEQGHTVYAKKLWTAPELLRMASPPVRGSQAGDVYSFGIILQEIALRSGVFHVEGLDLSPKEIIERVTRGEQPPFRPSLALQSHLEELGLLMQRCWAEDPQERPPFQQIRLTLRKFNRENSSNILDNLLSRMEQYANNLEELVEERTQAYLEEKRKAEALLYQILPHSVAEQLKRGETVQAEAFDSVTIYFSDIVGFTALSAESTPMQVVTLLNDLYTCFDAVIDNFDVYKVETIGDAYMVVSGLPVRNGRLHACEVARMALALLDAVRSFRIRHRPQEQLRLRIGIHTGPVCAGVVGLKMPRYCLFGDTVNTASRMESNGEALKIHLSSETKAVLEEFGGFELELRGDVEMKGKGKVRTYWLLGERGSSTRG
#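 Compound pre-incubated 30 min at room temperature on GloSensor-loaded HEK293 cells stably carrying hNpr1 and the pGS-40F cGMP biosensor. Stimulation uses hNppA at 0.1 nM final; luminescence is taken at baseline and 20 min post-agonist.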
# An asterisk follows results filed as active; ? = inconclusive; [ ] = dose if it differs, or a comment. % is scaled to controls: 0 for no effect and ±100 for the full control effect; potency is read from the fitted curve at half-maximal effect. A portion of the library, so the mix of outcomes need not match the whole.
molecule,hNpr1 antagonist
O=C(c1nccc2ccccc12)N1CC(CO)C2(CCNCC2)C1 (stereo unspecified),3.7%
O=C(NCCc1ccco1)C1CC(=O)N(c2n[nH]c3ccccc23)C1 (stereo unspecified),-13.2%
Cc1ccc(OCC(=O)N2CCCC(c3nn(C)c(=O)n3C(C)C)C2)cc1 (stereo unspecified),14.1µM*
CN(C)C[C@@H]1CN(S(C)(=O)=O)C[C@H]1NC(=O)c1nn(C)c2ccccc12,8.2%
O=C(O)c1cncc(-c2cccc(CN3CCOCC3)c2)n1,0.9%
COCCNC(=O)C[C@@H]1C[C@@H](C(C)C)[C@H](CNS(=O)(=O)c2ccccc2)C=C1C,-3.7%[70.6 µM]
CCOc1ccccc1NC(=O)N1C[C@@H](F)C[C@H]1C(=O)N1CCc2ccccc2C1,-15.5%
CCCCCNC(=O)CCN(CCCC)C(=O)c1ccoc1,-4.7%
CN1C[C@@H](NC(=O)c2ccc(C(C)(C)C)cc2)C[C@H]1c1nc(-c2ccc3ccccc3c2)no1,0.3%
Cc1noc(-c2cn(C3CCN(C(=O)c4ccc(C)s4)C3)nn2)n1 (stereo unspecified),-11.9%
CO[C@@H]1C[C@H]2C(=O)Nc3ccc(-c4cccc(C(F)(F)F)c4)cc3C(=O)N2C1,2.1%[70.6 µM]
CN(Cc1ccccc1)Cc1cn(C[C@H]2O[C@@H](CC(=O)NCc3ccc(F)cc3)[C@H](O)[C@@H]2O)nn1,-4.3%
C1CNCC(Cc2nc(C3CCOCC3)no2)C1 (stereo unspecified),4.8%
CN(C)Cc1nnc(C2CCN(c3nnnn3-c3ccccc3)CC2)n1C,4.9%
O=C(Nc1cc(F)ccc1F)N1CCC(Oc2ncccc2C(=O)N2CCCCC2)C1 (stereo unspecified),-9.2%
CCN(CC)C(=O)c1cc2c(s1)CCC(C(=O)O)C2 (stereo unspecified),1.8%
FC(F)(F)c1ccc2nc([C@H]3CCN(C4CCCCC4)C3)[nH]c2c1,-1.6%[70.6 µM]
CC(=O)N1CCC(c2ncc(C)n2Cc2ccccc2)C1 (stereo unspecified),4.1%
CC(=O)Nc1cccc(C(=O)Nc2cccc(-c3nnc4n3CCCC4)c2)c1,-3.1%
O=C(NCc1ccc(C(F)(F)F)cc1)c1cc(Br)cn2ccnc12,-16.0%

# Next part, overlapping the part above by two compounds.
molecule,hNpr1 antagonist
CC(=O)Nc1cccc(C(=O)Nc2cccc(-c3nnc4n3CCCC4)c2)c1,-3.1%
O=C(NCc1ccc(C(F)(F)F)cc1)c1cc(Br)cn2ccnc12,-16.0%
O=C(Nc1ccc([C@@H](O)[C@H]2COCC(=O)N2Cc2ccccn2)cc1)c1ccc(F)c(Cl)c1,-0.4%
Cc1noc(C)c1-c1cc2c(cc(C)n2CCN(C)C)c(Nc2ccncn2)n1,-20.1%[70.6 µM]
COc1ccc(C(=O)N2CCCC(n3cc(-c4nc(C5CC5)no4)nn3)C2)cc1OC (stereo unspecified),-11.6%
COc1ccc(NC(=O)c2ccc3c(c2)N(S(C)(=O)=O)CC3)cc1Cl,?
COCC(=O)N1C[C@@H]2C[C@H]1C(=O)N(CC1CC1)c1ccccc1O2,3.1%[70.6 µM]
O=S(=O)(Cc1ccccc1)N1CCCC(Cc2nncn2CC2CC2)C1 (stereo unspecified),3.1%
COc1cccc(CNC(=O)Cn2c(N(C)Cc3ccccc3)nc(C)cc2=O)c1OC,15.8µM*
COc1cccc(-c2cn3c(n2)N(C(=O)Cc2ccsc2)CCC3)c1,-1.8%
COc1ccc(Cc2nc3nccc(-c4ccncc4)n3n2)cc1,10.1%
CN(CC1CCOCC1)C(=O)Nc1ccc(F)c(Cl)c1,5.2%
CC(=O)N1CCC(C2CCN(Cc3ccccc3C#N)C2)CC1 (stereo unspecified),-1.7%
O=C(CCc1cc2n(n1)CCCNC2)N1CCCC1c1nc2ccccc2[nH]1 (stereo unspecified),7.1%
O=C(N1CCC(N[S+](=O)([O-])c2cccnc2)CC1)N1CC2CC(C1)[C@H]1CCCC(=O)N1C2 (stereo partly specified),3.6%
O=C(O)CCc1conc1-c1ccccc1F,0.9%
Cc1ccc2c(c1)N1C(=O)OC[C@@H]1CCN(C(=O)c1ccnc(Cl)c1)C2,-1.5%[70.6 µM]
COc1ccc(-c2ccc3c(c2)C(=O)N2CC[C@H](NC(=O)CCC(=O)O)[C@H]2C(=O)N3)cc1,2.9%
Cn1cnc(S(=O)(=O)N2CCC(c3noc(-c4ccccc4)n3)C2)c1 (stereo unspecified),-5.9%
COc1ncccc1-c1cnc2n[nH]c(-c3ccccc3C)c2n1,-10.0%[70.6 µM]
CC(C)c1ccc(NC(=O)c2ccc3c(c2)N(C)C2CCCN2C3=O)cc1 (stereo unspecified),-15.1%
Cc1ccc(SCCN(C)c2cc(C3CC(O)C3)nc(N)n2)cc1 (stereo unspecified),12.6µM*
CCn1nc(CC(C)C)cc1C(=O)NCC1CCCN(Cc2ccco2)C1 (stereo unspecified),-2.6%
Nc1nnc(CCNC(=O)[C@H]2CNC[C@H](C(=O)N3CCOCC3)C2)s1,2.1%
COc1cccc(CNC(=O)Cn2c(C)cc3nc4n(c(=O)c32)CCCC4)c1,0.0%
COCC(=O)NC[C@H]1CCN(Cc2ccc(F)c(OC)c2)C[C@H]1N(C)C,-0.1%
CC(=O)N1CCN(C(=O)C2(Cn3cccn3)CC2)CC(O)C1 (stereo unspecified),2.3%
CC1=Nc2cc(C(=O)NCCCN(C)C)ccc2Sc2ccc(F)cc21,1.8%
O=C1N(C2CCN(Cc3ccncc3)CC2)C(c2ccncc2)C12CCCCC2 (stereo unspecified),2.1%
COCc1ccc2c(c1)c(OC(C)(C)C(=O)Nc1ccc(OC)cc1)nn2Cc1cccnc1,5.0%
O=C1NCCCCCCN(Cc2ccncc2)[C@@H]2CN(C(=O)Nc3ccccc3F)CC[C@@H]12,-0.5%
O=C1CCN(S(=O)(=O)c2cccc(F)c2)CCCCCCN1,-2.3%
CN1CCC(OC2CCN(C(=O)c3cnn(C)c3)CC2)CC1,-8.9%
COCCCN1CC2(CCC1=O)CCN(C(=O)Nc1ccccc1F)CC2,0.6%
CN(Cc1ccsc1)Cc1ccc(C2CCCCO2)o1 (stereo unspecified),4.7%
CCCS(=O)(=O)N1C[C@@H](COC)[C@H](c2nc(C)no2)C1,1.0%
O=C(c1ccn[nH]1)N1CC[C@@H]2[C@@H](CCC(=O)N2CCc2cnc[nH]2)C1,-0.7%
O=[S+]1([O-])NCC2(CCCN(Cc3cccc4ccccc34)C2)Nc2ccccc21 (stereo unspecified),1.6%
O=C(c1cc(-c2ccc(F)cc2)nc2ccccc12)N1CCCC1c1nc(C2CCOCC2)no1 (stereo unspecified),7.9%
CC(C)(C)OC(=O)NC[C@H]1OC[C@@H](N)[C@@H]1O,0.7%[70.6 µM]
CC(C)NC(=O)N1CCN(C(=O)c2ccc(N(C)C)cc2)C[C@H]1C(=O)N[C@@H](CC1CCCCC1)C(N)=O,-0.3%
COc1ccccc1C(=O)Nc1ccc2ncnc(N3CCCCC3)c2c1,?

# The results go on.
molecule	hNpr1 antagonist
COCC(=O)NC[C@H]1O[C@@H](CO)[C@@H](O)[C@H]1N1CCN(c2ccccn2)CC1	10.2%
CCn1cnnc1CC1CCN(C(=O)CCC(=O)n2nc(C)c3ccccc32)CC1	1.3%
O=C(NCc1cccnc1Oc1ccccc1)c1ccncc1	2.1%
CC(C)S(=O)(=O)NCC(=O)N1CCCCCNC(=O)CC1c1ccccc1 (stereo unspecified)	-0.8%
O=C1CC(c2ccccc2)N(Cc2ccncc2)CCCN(C(=O)CCc2ccccc2)CCN1 (stereo unspecified)	-23.4%
O=C(N1CC(Oc2ccccc2-c2nc(C3CC3)no2)C1)C1(c2ccccc2)CC1	-21.9%
COc1ccc(Cl)cc1-c1ccc2c(c1)C(=O)N1CCN(C(=O)c3ccc(N(C)C)cc3)C[C@@H]1C(=O)N2	-9.0%
O[C@@H]1C[C@@H](c2nnc3n2CCN(C2CCCCC2)C3)N(Cc2cccnc2)C1	-0.3%
CN(C)C(=O)CCC(=O)N1CCC(c2cc(Cc3ccccc3)[nH]n2)CC1	-0.1%
O=C1CO[C@H]2CCN(Cc3cccc(OC(F)(F)F)c3)CC[C@@H]2N1Cc1c[nH]c2ccccc12	-9.6%
CN(Cc1ccc(C(F)(F)F)cc1)Cc1ccccc1C(F)(F)F	12.6%[70.6 µM]
CCc1noc(-c2cn(C3CCN(C(=O)c4ccc(Cl)s4)C3)nn2)n1 (stereo unspecified)	?
Cc1noc(C)c1S(=O)(=O)N1CC[C@@H](c2ccc3c(c2)OCO3)[C@H](O)C1	1.8%
COc1ccc2nc(C[C@@H]3C[C@@H](C(C)C)[C@H](CNC(=O)CC(C)(C)CC(=O)O)C=C3C)[nH]c2c1	-1.6%
O=C(c1cc(F)ccc1F)N1CCCN(CCc2ccccc2)c2ccccc21	-14.1%
O=C(Nc1ccccc1)O[C@@H]1CO[C@H]2[C@@H]1OC[C@@H]2NC(=O)c1ccc(C(F)(F)F)cc1	-28.2%
CC(C)c1noc([C@@H]2C[C@H](NC(=O)C3CCCCC3)CN2C)n1	2.0%[70.6 µM]
COc1ccc(-c2noc([C@@H]3CCCN3C(=O)Cc3ccccc3)n2)cc1	-3.9%
O=C(c1ccc2cccnc2c1O)N1CCCC(CCc2ccccc2F)C1 (stereo unspecified)	3.8%
COc1ccccc1OCCNC(=O)C1CCc2ncc(-c3ccc(F)cc3)n2C1 (stereo unspecified)	?
Cc1ccc(CN[C@@H]2CO[C@H](CNC(=O)c3ccc(F)cc3)[C@H]2O)cc1	-11.2%[70.6 µM]
Cc1ccc(CNC(=O)CC2CCCN(c3cn[nH]c(=O)c3)C2)cc1 (stereo unspecified)	14.8%
COCCN1CCCC(c2[nH]ccc2C(=O)NCCn2cccn2)C1 (stereo unspecified)	0.0%
CNC(=O)N1CCC(C2CCN(Cc3cc(F)c(F)c(F)c3)C2)CC1 (stereo unspecified)	-1.7%
CC1(C)[C@H]2CC[C@@H](CNC(=O)c3ccc(Cl)cc3)[C@@H]1C2	-8.4%[70.6 µM]

# A stretch of the results above, as a working copy:
molecule	hNpr1 antagonist
O=C(c1nccc2ccccc12)N1CC(CO)C2(CCNCC2)C1 (stereo unspecified)	3.7%
O=C(NCCc1ccco1)C1CC(=O)N(c2n[nH]c3ccccc23)C1 (stereo unspecified)	-13.2%
Cc1ccc(OCC(=O)N2CCCC(c3nn(C)c(=O)n3C(C)C)C2)cc1 (stereo unspecified)	14.1µM*
CN(C)C[C@@H]1CN(S(C)(=O)=O)C[C@H]1NC(=O)c1nn(C)c2ccccc12	8.2%
O=C(O)c1cncc(-c2cccc(CN3CCOCC3)c2)n1	0.9%
COCCNC(=O)C[C@@H]1C[C@@H](C(C)C)[C@H](CNS(=O)(=O)c2ccccc2)C=C1C	-3.7%[70.6 µM]
CCOc1ccccc1NC(=O)N1C[C@@H](F)C[C@H]1C(=O)N1CCc2ccccc2C1	-15.5%

# Later entries:
molecule	hNpr1 antagonist
CCCOc1ccc(C(=O)N2C[C@H](c3cccc(OC)c3)[C@@H](N)C2)cc1Cl	-16.2%
CC(C)Cn1cnc2cccnc21	8.5%[70.6 µM]
COc1cccc(C(=O)N2CCC[C@H]2c2nc(-c3ccccc3Cl)no2)c1	-8.5%
CCCNC(=O)O[C@@H]1CC[C@]2(C)C(CC[C@@H](O)[C@H]2CC(=O)NCc2ccc3c(c2)OCO3)[C@]1(C)CO (stereo partly specified)	-0.6%
O=C(c1ccc(N2CCC(NCc3cc(C(F)(F)F)ccc3F)CC2)cc1)N1CCCC(CO)C1 (stereo unspecified)	0.0%
O=c1[nH]c(N2CCOCC2)nc2c1CCN(Cc1ccc(F)cc1F)CC2	0.1%
O=C(NC1CCCCC1)[C@@H]1C[C@@H](O)CN1C1CCN(C(=O)c2cccnc2)CC1	9.0%
COc1ccc(C(=O)NC2CCN(c3cn[nH]c(=O)c3)CC2)c(OC)c1	-4.3%
Cc1noc(C)c1-c1cc2c(c(-c3cccc(CO)c3)c1)C(=O)N(C)C2=O	9.7%[70.6 µM]
O=C(CC1CCN(S(=O)(=O)c2ccc3c(c2)OCCO3)C1)NCc1ccccc1 (stereo unspecified)	-11.1%
COc1cccc(CC(=O)N[C@@H]2C[C@H](Cn3cc(C4CC4)nn3)[C@@H](O)[C@H]2O)c1	0.7%[70.6 µM]
CN1CC2(CCN(C3CCN(Cc4ccccc4)CC3)CC2)CC1C(=O)N1CCOCC1 (stereo unspecified)	3.1%
COc1ccc(CNC(=O)N2CCC(c3noc(-c4ccccc4)n3)C2)cc1 (stereo unspecified)	?
O=C(Nc1ccccc1)N1CCCC(Cn2c(C3CC3)nc3cccnc32)C1 (stereo unspecified)	6.7%
O=C(CN1C(=O)COc2ccc(C(=O)COc3ccc(Cl)cc3F)cc21)NC1CCCCC1	3.2%
COc1nc2nc(CC3CC3)n(C)c2cc1-c1ccc(CO)cc1	-3.1%[70.6 µM]
O=C(c1ccccc1F)N1CCCC(c2nn(-c3ccc(F)cc3)c(=O)[nH]2)C1 (stereo unspecified)	-3.6%
Cc1ccc(-c2cc(C(=O)O)n(C)c2)cc1	-13.6%
CN(C)[C@@H]1CO[C@H](CNS(C)(=O)=O)[C@H]1O	3.3%[70.6 µM]
Cc1nc(CC2CCN(C(=O)C3CCCC3)CC2)n[nH]1	4.9%
COCCN1C(=O)[C@H]2CN(Cc3ccc(OC)cc3OC)C[C@H]2C1=O	-9.1%
CN(C)C[C@@H]1CN(Cc2ccncc2)C[C@H]1NC(=O)NCc1ccccc1	0.8%
Cc1ccc(C(=O)NC2CCN(c3cc(-c4cccs4)[nH]n3)CC2)c(C)c1	0.0%
